# Assay outcomes from PubChem.
# GLA inh pH 4.5 = alpha-galactosidase A (human) inhibition, pH 4.5 | P06280 | purified enzyme, 4-MU-alpha-Gal fluorescence, pH 4.5 | activity change, negative = inhibition, % at 105 µM | 230,000 tested, under 10 active | AID 1467; inconclusive = small, poorly fitted or top-dose-only inhibition, or a rising curve; inactive = flat fitted curve, though single readings scatter; no compound was filed as active;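 note: 0% = full activity with enzyme and -100% = basal without enzyme; dose as in the result columns while the protocol names 77 µM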
# Target sequence (P06280 whole entry, looked up): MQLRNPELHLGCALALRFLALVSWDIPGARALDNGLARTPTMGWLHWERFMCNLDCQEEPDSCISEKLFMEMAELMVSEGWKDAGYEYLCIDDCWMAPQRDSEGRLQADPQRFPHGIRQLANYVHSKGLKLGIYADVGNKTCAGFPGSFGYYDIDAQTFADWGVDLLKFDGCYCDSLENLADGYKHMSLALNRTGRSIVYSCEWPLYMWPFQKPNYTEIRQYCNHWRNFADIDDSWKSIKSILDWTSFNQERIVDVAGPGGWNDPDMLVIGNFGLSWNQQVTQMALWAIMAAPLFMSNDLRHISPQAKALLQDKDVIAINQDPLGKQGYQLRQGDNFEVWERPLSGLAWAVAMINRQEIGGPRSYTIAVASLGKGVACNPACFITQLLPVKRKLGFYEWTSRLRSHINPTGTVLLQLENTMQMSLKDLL
# Rango release inh = prevents RanGTP from dissociating the Rango-importin beta complex; AID 540253; actives 0.071% (n = 340,000); Biochemical FRET Rango-importin beta, RanGTP-induced dissociation; Potency, µM (series often up to 46.1 µM), without a hit: at the top dose activity change, negative = inhibition; active means falling FRET ratio curve, often poorly fitted, with flat reads before Ran was added; inconclusive means other falling curves, or compound fluorescence or quenching; inactive means flat or rising ratio curve;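 note: potency is the fitted concentration of half-maximal effect; % of control where 0% means no effect; nearly all actives have a fitted effect of over 45% in size; -100% = wells without RanGTP and RCC1; the record marks most hits as doubtful in a second field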
#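 Compounds sat 5 min at room temperature with 0.1 uM Rango biosensor plus 0.25 uM importin beta, then FRET pre-read. RanGTP-RCC1 (0.6 uM Ran, 2mM GTP, 0.2 uM RCC1) added for 45 min, and the CFP/YFP post-read measured blocked complex dissociation.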
# miR-21 FLuc = miR-21 reporter, rising signal. HeLa miR-21 FLuc reporter, luciferase, 48 h. Potency, µM (doses to about 38.3 µM), without a hit: top-dose reporter change, positive = more light. 340,000 tested, under 10 active. AID 2288; active = well fitted rising curve with a large enough effect; inconclusive = small, poorly fitted or top-dose-only effect; inactive = no such curve, though single readings can be large or run the other way;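 note: % of control where 0% means no effect; miR-21 action dims this reporter so a rising signal means less miR-21 action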
#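 HeLa cells endogenously expressing miR-21, stably carrying CMV-driven firefly luciferase with a downstream miR-21 binding site, 2000 cells/well. Titrations up to approximately 40 uM, 48 hours; luciferase luminescence read.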
# Rango-impB inh = inhibitors of Rango-importin beta complex formation. Q14974. Rango CFP/YFP FRET sensor + importin beta, 45 min. Potency, µM (highest dose often 92.2 µM), for the others: at the highest dose inhibition of complex formation. actives 0.031% (n = 340,000). AID 540263; active = rising FRET ratio curve, often small or poorly fitted; inconclusive = mostly compound fluorescence or quenching in the first reads; inactive = flat curves in all reads;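 note: potency is the fitted concentration of half-maximal effect; 0% = DMSO wells and 100% = buffer wells lacking importin beta; nearly all actives have a fitted effect of over 15% in size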
#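 Inhibition scored from the CFP 486 nm/YFP 530 nm FRET ratio 45 min after adding 0.125 microM importin beta to 50 nM Rango biosensor preincubated 5 min with compound (room temperature, PBS with DTT, Tween-20, BSA). No-importin wells as positive control.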
# * marks the source's active call; other numbers are inactive results; u = inconclusive; x = no result given; & = joins results of further samples.
SMILES,GLA inh pH 4.5,Rango release inh,miR-21 FLuc,Rango-impB inh
CCOC(=O)c1ccc(C(=O)OCC)c(NC(=S)Nc2ccc([N+](=O)[O-])cc2OC)c1,-9,-5%,-28%,-5.0%
O=C(OCc1nc2ccccc2s1)c1ccc(Br)o1,-4,2%,-22%,2.1%
COc1ccc(Cl)cc1NC(=O)CSc1nc(Nc2ccccc2)nc(N2CCOCC2)n1,x,-7%,14%,-4.9%
CC(C)c1nc2ccc(NC(=O)C3CCCCC3)cc2[nH]1,-9,33%,-36%,6.1%
Cc1ccccc1OCC(=O)N/N=C/c1ccc2c(c1)OCCO2,-9,0%,-16%,1.0%
COc1nc(OC)nc(N2CCC(C(=O)NCc3cccs3)CC2)n1,2,0%,1%,-6.3%
CN(c1ccccc1)S(=O)(=O)c1ccc(NC(=O)c2cccs2)cc1,u,-3%,6%,2.3%
Cc1nc2ccccc2c(=O)n1-c1cccc(NS(=O)(=O)c2ccccc2)c1,x,29%,x,-5.0%
CC(=O)N1CCN(C(=O)c2cccc(NS(=O)(=O)c3ccc(Br)cc3)c2)CC1,x,0%,x,-1.7%
CCOC(=O)/C(N=Nc1c(C)n(C)n(-c2ccccc2)c1=O)=C(\C)O,-1,12%,-1%,-0.5%
CN(C)C(=S)NCc1ccccc1,-15,-11%,0%,0.4%
COc1ccc(S(=O)(=O)Nc2ccc3c(c2)COC3=O)cc1OC,-3,-15%,-5%,-2.9%
O=C(CN1C(=O)c2ccccc2S1(=O)=O)NC1CC2CCC1C2 (stereo not drawn),1,14%,-14%,-0.8%
Cc1ccc(-c2nnc(Nc3ccccc3)o2)cc1,-1,2%,4%,1.4%
CCn1c(SCC(=O)c2c(N)n(C3CC3)c(=O)[nH]c2=O)nc2cc(S(N)(=O)=O)ccc21,x,-1%,x,-3.2%
O=C(Nc1ccncc1)Nc1ccc(F)cc1,x,-9%,-16%,-0.5%
CC(=O)N1CCc2cc(S(=O)(=O)NCCCN3CCN(Cc4ccccc4)CC3)ccc21,-2,0%,7%,1.5%
N=C1/C(=C\c2ccc(OCc3ccccc3)cc2)C(=O)N=C2SC(N3CCCC3)=NN12,-15,x,-20%,x
CCOc1ccc(NC(=O)C(=O)NCC2CCCN2CC)cc1 (stereo not drawn),-1,2%,-3%,3.5%
Cn1c(Cn2cnc([N+](=O)[O-])n2)nnc1SCC(=O)Nc1ccc(Br)cc1,6,4%,8%,0.1%
CCNc1nc(Oc2ccc(F)cc2)cc(C(F)(F)F)n1,-3,10%,-1%,0.0%
O=C(CN(Cc1cccs1)C(=O)c1csnn1)NC1CCCC1,-1,6%,-6%,4.0%
COC(=O)c1c(Cl)c2n3ccccc3c(C)c(-c3ccccc3)c-2c1C(=O)OC,2,-48%,-1%,u
CCCCNC(=O)c1ccccc1Cl,-3,0%,-28%,1.5%
COc1cccc(N(C(=O)c2snc(C(N)=O)c2N)C(C(=O)NCC2CCCO2)c2c[nH]c3ccccc23)c1 (stereo not drawn),x,-10%,-13%,-0.3%
CCOC(=O)CNC(=O)c1cnc(Nc2ccccc2OC)c2ccccc12,x,9%,0%,4.0%
CC(=O)c1sc2nc(C)cc(C)c2c1N,-10,u,-7%,u
COc1ccc(C(C(=O)NC2CCCC2)N(C(=O)Cc2cccs2)C2CC2)cc1OC (stereo not drawn),x,6%,0%,-1.2%
CCCc1nc2ccc(NC(=O)c3ccco3)cc2c(=O)n1Cc1ccccc1Cl,-9,-11%,-10%,-2.2%
Cc1ccc(OCC(=O)c2cc(C)n(Cc3cccs3)c2C)c([N+](=O)[O-])n1,6,7%,7%,-5.6%
Cc1cc(N2CC(C(=O)NCc3cccs3)CC2=O)ccc1C(C)C (stereo not drawn),2,2%,2%,0.7%
COc1c2ccoc2nc2c(OC)c(OCC(O)C(C)(C)O)ccc12 (stereo not drawn),5&5&9,1%,-21%,-2.5%
COC(=O)C(C)(C)c1cccnc1C#N,x,12%,x,u
COc1cccc(CNC(=O)c2ccc(CS(=O)(=O)Cc3ccccc3C)o2)c1,x,-3%,1%,0.8%
CC(=O)N(Cc1ccccc1)Cc1cn(CCC#N)nc1-c1cccc([N+](=O)[O-])c1,-2,-10%,-11%,-0.4%
CC(C(=O)Nc1ccc(OCc2ccccc2)cc1)N1CCCC1 (stereo not drawn),2,25%,-37%,0.5%
CCn1c(=O)c([N+](=O)[O-])c(NC2CCS(=O)(=O)C2)c2ccccc21 (stereo not drawn),8,-4%,1%,-0.7%
C=C[C@]1(C)C=C2CCC3[C@](C)(CCC[C@@]3(C)C(=O)O)C2CC1 (stereo partly drawn),x,0%,x,-0.4%
COc1ccc(C2/C(=C(/O)c3ccccc3)C(=O)C(=O)N2C)c(OC)c1 (stereo not drawn),x,0%,-16%,-1.1%
Cc1ccccc1N1CCN(c2ccc(NC(=O)C3CCCCC3C(=O)O)cc2)CC1 (stereo not drawn),-4,-9%,-9%,0.1%
COc1ccc(-c2cc(C(F)(F)F)n3nc(C(=O)N4CCN(C(=O)c5ccco5)CC4)cc3n2)cc1,x,-11%,-4%,u
CCn1c(=O)c([N+](=O)[O-])c(NCc2ccco2)c2ccccc21,-8,17%,-2%,1.3%
COc1ccc(C(=O)CSc2nc3ccccc3n2CC(=O)c2ccccc2)cc1,-10,-21%,4%,-1.9%
CCOC(=O)C1=C(C)NC(=O)NC1c1ccc(OC)c(CN2CCOCC2)c1 (stereo not drawn),-2,0%,-10%,-2.7%
Oc1ccc(N2CCN(C(c3cccnc3)c3nnnn3Cc3ccccc3)CC2)cc1 (stereo not drawn),-5,18%,-3%,-1.4%
COC(=O)c1cccc(NC(=O)CCNC(=O)c2ccc([N+](=O)[O-])cc2)c1,0,-6%,-1%,0.0%
COc1ccc(NS(=O)(=O)c2cc(NC(=O)C3=NN(c4ccccc4)C(=O)CC3)ccc2C)cc1,x,1%,x,-2.7%
O=C(Cc1cccc(NC(=O)C2CCCN(C(=O)C3CCC3)C2)c1)Nc1ccc(C(=O)N2CCCCC2)cc1 (stereo not drawn),x,3%,x,-4.4%
OCC[C@@H]1C[C@H](O)[C@@H](O)[C@@]2(CCCCO2)O1,x,3%,x,-4.1%
C#CCOCCOCCOCCNc1nc(N2CCN(C(=O)Cn3cc(CC(C)O)nn3)CC2)nc(N2CCN(C(=O)[C@H](C)n3cc(CCC(=O)O)nn3)CC2)n1 (stereo partly drawn),x,0%,x,-2.1%
O=C(Cn1nnc(-c2ccccc2)n1)NCc1cccs1,4,-2%,-3%,-3.4%
CCOc1ccc(N2C(=O)CC(N3CCN(C(=O)c4ccco4)CC3)C2=O)cc1 (stereo not drawn),-8,33%,-2%,0.1%
O=C(COC(=O)/C=C/c1ccccc1)NCc1ccc2c(c1)OCO2,x,27%,x,-4.2%
CCCCn1c(NCc2ccncc2)nc2ccccc21,-10,-2%,2%,0.4%
Cc1cc(C)cc(C(=O)NN2CCOCC2)c1,-13,22%,-7%,-0.6%
O=C(CCCC(=O)N1CCN(c2cccc(Cl)c2)CC1)c1ccccc1,x,-5%,-17%,-0.2%
CC(c1ccco1)N(C(=O)Nc1ccc(Cl)cc1)c1ccccn1 (stereo not drawn),-1,2%,-35%,1.3%
Cc1cc(Nc2ccc(C)c(C)c2)n2nc(C)nc2n1,-2,4%,-7%,0.4%
CCCc1nnc(NC(=O)CN2CCN(C)CC2)s1,14,2%,-2%,4.0%
C=CCSC(=S)NC1CCS(=O)(=O)C1 (stereo not drawn),-5,10%,0%,u

# Remaining list, next part:
SMILES,GLA inh pH 4.5,Rango release inh,miR-21 FLuc,Rango-impB inh
NC(=O)CSc1nnc(-c2cc(-c3ccc(Cl)cc3)nc3ccccc23)o1,5,2%,-4%,1.0%
COc1ccc(CN2CCN(C3CCSCC3)CC2CCO)c(C)c1C (stereo not drawn),1,1%,0%,0.1%
COc1ccc2c(c1)[nH]c1c(=O)n(CCN3CCCC3)cnc12,3,-5%,-8%,3.0%
O=C(Nc1ccnn1C1CCN(Cc2cc(Cl)ccc2O)CC1)C1CC1,x,0%,1%,9.1%
O=[N+]([O-])c1ccc(S(=O)(=O)N/N=C/c2cccs2)cc1,-13,7%,-7%,-0.5%
Cc1ccc(S(=O)(=O)NC(=O)Nc2c(C)n(C)n(-c3ccccc3)c2=O)cc1,-2,4%,-5%,1.4%
COc1ccc(/C=C/c2noc(-c3ccccc3OC(C)=O)n2)cc1,x,6%,-20%,1.7%
CCOCCCNC(=O)CS(=O)(=O)Cc1nc(-c2cccc(OC)c2)oc1C,4,1%,-3%,-4.9%

# By substructure, the entries above containing a halogen
SMILES,GLA inh pH 4.5,Rango release inh,miR-21 FLuc,Rango-impB inh
O=C(OCc1nc2ccccc2s1)c1ccc(Br)o1,-4,2%,-22%,2.1%
COc1ccc(Cl)cc1NC(=O)CSc1nc(Nc2ccccc2)nc(N2CCOCC2)n1,x,-7%,14%,-4.9%
CC(=O)N1CCN(C(=O)c2cccc(NS(=O)(=O)c3ccc(Br)cc3)c2)CC1,x,0%,x,-1.7%
O=C(Nc1ccncc1)Nc1ccc(F)cc1,x,-9%,-16%,-0.5%
Cn1c(Cn2cnc([N+](=O)[O-])n2)nnc1SCC(=O)Nc1ccc(Br)cc1,6,4%,8%,0.1%
CCNc1nc(Oc2ccc(F)cc2)cc(C(F)(F)F)n1,-3,10%,-1%,0.0%
COC(=O)c1c(Cl)c2n3ccccc3c(C)c(-c3ccccc3)c-2c1C(=O)OC,2,-48%,-1%,u
CCCCNC(=O)c1ccccc1Cl,-3,0%,-28%,1.5%
CCCc1nc2ccc(NC(=O)c3ccco3)cc2c(=O)n1Cc1ccccc1Cl,-9,-11%,-10%,-2.2%
COc1ccc(-c2cc(C(F)(F)F)n3nc(C(=O)N4CCN(C(=O)c5ccco5)CC4)cc3n2)cc1,x,-11%,-4%,u
O=C(CCCC(=O)N1CCN(c2cccc(Cl)c2)CC1)c1ccccc1,x,-5%,-17%,-0.2%
CC(c1ccco1)N(C(=O)Nc1ccc(Cl)cc1)c1ccccn1 (stereo not drawn),-1,2%,-35%,1.3%
NC(=O)CSc1nnc(-c2cc(-c3ccc(Cl)cc3)nc3ccccc23)o1,5,2%,-4%,1.0%
O=C(Nc1ccnn1C1CCN(Cc2cc(Cl)ccc2O)CC1)C1CC1,x,0%,1%,9.1%

# Full records from above.
# Listed for `CCOCCCNC(=O)CS(=O)(=O)Cc1nc(-c2cccc(OC)c2)oc1C` → GLA inh pH 4.5: 4; Rango release inh: 1%; miR-21 FLuc: -3%; Rango-impB inh: -4.9%
# Listed for `COc1ccc2c(c1)[nH]c1c(=O)n(CCN3CCCC3)cnc12` → GLA inh pH 4.5: 3; Rango release inh: -5%; miR-21 FLuc: -8%; Rango-impB inh: 3.0%

# Not all compounds are listed, so the mix of outcomes need not match the whole.
